Screens as filed in PubChem.
TRPML1 blocker: qHTS for Inhibitors of the Human Mucolipin Transient Receptor Potential 1 (TRPML1); hit rate 0.02% among 390,000; activity change, negative = inhibition, % (no concentration beside the values); TRPML1-inducible cells, Ca2+ dye fluorescence, FDSS; active compounds read low; inhibition of EC80 agonist-evoked calcium signal; in the data active means activity change below about -50%; inconclusive means about -30% to -50%; inactive means above about -30%;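 further: stimulus is agonist 54-4 at its EC80 concentration; on the % scale 0 is the no-effect control and ±100 the full control effect; compound concentration not given in the record; the text of the record puts the active cut at -80%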
Target sequence (Q9GZU1 whole entry, looked up): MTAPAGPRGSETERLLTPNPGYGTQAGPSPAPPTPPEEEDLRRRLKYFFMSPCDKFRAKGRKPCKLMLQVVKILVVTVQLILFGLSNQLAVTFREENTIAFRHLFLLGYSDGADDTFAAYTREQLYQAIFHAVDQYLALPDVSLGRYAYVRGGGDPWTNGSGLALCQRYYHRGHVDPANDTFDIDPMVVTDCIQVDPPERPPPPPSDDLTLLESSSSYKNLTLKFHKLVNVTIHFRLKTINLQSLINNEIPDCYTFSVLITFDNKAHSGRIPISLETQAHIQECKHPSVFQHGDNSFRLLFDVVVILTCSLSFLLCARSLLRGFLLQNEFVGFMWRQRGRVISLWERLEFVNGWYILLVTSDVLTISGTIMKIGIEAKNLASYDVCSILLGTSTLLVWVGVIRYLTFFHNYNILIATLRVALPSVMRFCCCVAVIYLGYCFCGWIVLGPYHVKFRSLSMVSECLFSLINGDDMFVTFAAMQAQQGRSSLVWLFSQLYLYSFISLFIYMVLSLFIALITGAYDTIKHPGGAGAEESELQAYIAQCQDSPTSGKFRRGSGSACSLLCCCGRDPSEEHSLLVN
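Calcium fluorescence in TRPML1-DL cells induced overnight with Tet: a 110 s read after compound pin addition, then a 110 s antagonist read after challenge with 54-4 at 4 uM final (EC80).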
Menin MLL FP FL: qHTS Assay for Inhibitors Targeting the Menin-MLL Interaction in MLL Related Leukemias: Competition With Fluorescein Labeled MLL-derived Peptide. AID 1766, 2009. 290,000 tested, under 10 active. Fluorescence polarization, fluorescein-MLL peptide displacement from menin. FP activity change, % at 61.4 µM; inconclusive = falling polarisation curve, or a change in total fluorescence; inactive = total fluorescence flat and polarisation flat or rising; no compound was filed as active; the % refers to the polarisation; negative = inhibition;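 further: % of control where 0% means no effect; inhibitors lower the polarisation; unlabelled MLL peptide was the positive control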
Sfp PPTase inh: qHTS Assay for Inhibitors of Bacillus subtilis Sfp phosphopantetheinyl transferase (PPTase) | hit rate 3.5% among 310,000 | Potency, µM, for the others: max response, negative = inhibition, actives largely listed as inhibitors | Biochemical Sfp PPTase activity, qHTS | AID 1490, 2009 | 4'-phosphopantetheinyl transferase ffp (Bacillus subtilis), Q9F4F7; active means well fitted inhibition curve with a large enough effect; inconclusive means small, poorly fitted or top-dose-only effect, or another doubt; inactive means no such curve, though single readings can be large or run the other way;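 further: the enzyme is Sfp with the accession as filed and its product quenches rhodamine fluorescence; potency means the concentration at half of the fitted maximal effect; 0% = enzyme reaction without inhibitor and -100% = no enzyme wells; top concentration of the series not given in the record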
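Fluorescence-quenching assay: 15 nM Sfp-PPTase preincubated 15 min at room temperature with compound, then 5 uM rhodamine-CoA and 12.5 uM BHQ-2-labelled YbbR peptide added. Fluorescence (ex 525/em 598 nm) read at start and after 30 min; difference gives rate.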
TRPML1 ag: qHTS for Agonists of the Human Mucolipin Transient Receptor Potential 1 (TRPML1); AID 624414, 2012; TRPML1-expressing cells, Ca2+ dye fluorescence, FDSS; host cell line not named in the record; reference of the full effect not given here; hit rate 0.12% among 410,000; activation, % (no concentration beside the values); Mucolipin-1 (Homo sapiens), Q9GZU1; in the data active = activation above about 50%; inconclusive = about 30% to 50%; inactive = below about 30%; further: 0% is about no effect; the text of the record puts the active cut at 80%
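Tetracycline-induced TRPML1-DL cells are seeded and incubated overnight before loading with a no-wash Ca2+ dye and quencher. Agonist activity is taken from the 110 s fluorescence read following compound pin-transfer on an FDSS, before EC80 54-4 challenge.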
ClpP mod: qHTS Assay for Activators of ClpP; Potency, µM (top dose mostly 57.5 µM), for inactives: top-dose activity change, negative = active; purified B. subtilis ClpP, FRET peptide cleavage, 20 min; hit rate 1.9% among 340,000; ATP-dependent Clp protease proteolytic subunit (Bacillus subtilis (strain 168)), P80244; AID 651965, 2013; active = well fitted falling curve with a large enough effect; inconclusive = small, poorly fitted or top-dose-only effect; inactive = no such curve, though single readings can be large or run the other way; further: potency means the concentration at half of the fitted maximal effect; the source files actives as falling curves though it sought activators and does not explain the sign; nearly all actives have a fitted effect of over 65% in size; many hits overshoot -100%
Target sequence (P80244 whole entry, looked up): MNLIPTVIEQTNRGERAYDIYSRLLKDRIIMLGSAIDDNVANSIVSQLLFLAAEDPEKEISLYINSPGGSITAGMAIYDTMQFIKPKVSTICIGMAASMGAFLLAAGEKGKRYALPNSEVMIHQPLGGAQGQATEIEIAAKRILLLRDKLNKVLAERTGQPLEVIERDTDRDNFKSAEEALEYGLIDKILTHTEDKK
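ClpP 10 microg/mL final, pH 8 Tris/KCl buffer with BSA, glycerol, Tween-20; compound pinned in; FRET-FV substrate; RT 20 min; Ex320/Em430; ΔFRET vs ADEP 5.8 microM, DMSO, no enzyme.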
PINK1 modulator: A Quantitative High throughput Screen to Identify Chemical Modulators of PINK1 Expression; PINK1 immunofluorescence, high-content cytometry, 24 h; Potency, µM (series often up to 76.6 µM), inactives show top-dose activation (PINK1 increase), most hits filed as activators; hit rate 0.2% among 410,000; active = well fitted activation curve with a large enough effect; inconclusive = small, poorly fitted or top-dose-only effect; inactive = flat fitted curve, though single readings scatter; cell line not stated here;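 further: potency means the concentration at half of the fitted maximal effect; % of control where 0% means no effect; nearly all actives have a fitted effect of over 65% in size; a mitochondrial uncoupler was the plate control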
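Fluorescence from anti-PINK1 antibody, together with nuclear and cell stains, was scanned on a laser-scanning cytometer. Before staining, stable-line cells were incubated 24 hours with compounds at 5 concentrations; primary antibody 12 h at 10 degrees C.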
TRPV1 PAM: HTS Assay for Compounds that Act as Potentiators of the Vanilloid Receptor 1 | Transient receptor potential cation channel subfamily V member 1 (Homo sapiens), Q8NER1 | TRPV1-expressing cells, Fluo-8 calcium influx, capsaicin EC20 potentiation; host cell line not named in the record; control for the full effect not named in the record | potentiation, % at 8.33 µM | hit rate 0.02% among 320,000; active means potentiation above 80%; inconclusive means 30% to 80%; inactive means below 30%; further: 0% is about no effect
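Fluo-8 calcium influx in TRPV1-expressing cells, kinetic read (ex 480/em 520 nm). Compound added and read 3 min for agonist activity, followed by capsaicin at EC20 final and 2 min further read for enhancement.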
Starred values were filed as active, the others as inactive; i = inactive; ? = inconclusive; · = not tested or not shown; & = joins results of further samples; [ ] = another dose, or the depositor's remark.

nr	SMILES	TRPML1 blocker	Menin MLL FP FL	Sfp PPTase inh	TRPML1 ag	ClpP mod	PINK1 modulator	TRPV1 PAM
1	CCC(=O)N1c2ccccc2[C@@H](N(C(C)=O)c2ccccc2)C[C@H]1C	-21.6	6.7	2.7%	5.8	0.8%	-0.6%	-16.6
2	COc1cccc(C(=O)NN2CCOCC2)c1	4.9	·	·	0.0	-2.8%	0.6%	·
3	CN(C)c1ccc(NC(=O)CC(NCc2cccnc2)C(=O)O)cc1 (configuration not stated)	-18.6	·	·	-0.5	0.5%	-1.0%	·
4	CC(=O)Nc1ccc2c(CSc3nnc(-c4cccnc4)n3-c3ccc(C)cc3C)cc(=O)oc2c1	-6.8	7.2	-13.7%	-0.2	?	0.5%	-7.3
5	CCCCOc1ccc(-c2ncc([N+](=O)[O-])cn2)cc1	-11.2	-2.1	11.4%	1.0	-0.9%	0.7%	3.0
6	CCOC(=O)[C@@H](C)N(C(=O)OC(C)(C)C)S(=O)(=O)N(Cc1ccccc1)[C@H](C(=O)OC)C(C)C	19.2	·	·	-0.6&0.7	2.0%&2.6%	5.0%	·
7	COCCNc1c(-c2ccc(O)cc2)nc2ccc(Cl)cn12	9.3	2.3	20.3%	1.9	10.3%	2.2%	-14.5
8	CCOC(=O)N1CCC(N2Cc3cccc(C(=O)Nc4ccc(OC)c(OC)c4)c3C2=O)CC1	1.5	5.4	-3.9%	0.0	1.4%	1.6%	·
9	COc1ccc(CCNC(=S)Nc2cccc(C)c2)cc1	-12.0	0.0	10.3%	0.7	-1.1%	-1.1%	-1.8
10	COc1ccc2cc(CCC(C)=O)ccc2c1	-6.9	-2.5	8.5%&6.5%&20.0%	0.2	0.9%	1.2%	-14.7
11	CCC(C)[C@H](NC(=O)N1CCCC1)C(=O)O (some centres not stated)	-3.9	-0.2	6.8%	1.2	-0.8%	·	7.5
12	CNc1c(NS(=O)(=O)c2ccc(OC)c(Cl)c2)c(=O)oc2ccccc12	11.0	3.0	8.5%	-1.2	43.1%	10.6%	15.3
13	C=CCn1c(=O)c(C(=O)NCCNCC)c(O)c2ccccc21	-0.9	-2.8	-7.4%	-0.1	-15.6%	?	-3.4
14	O=C(O)c1cc(S(=O)(=O)NC(Cc2c[nH]c3ccccc23)C(=O)O)ccc1Cl (configuration not stated)	1.0	3.1	-15.6%	1.1	-2.6%	-0.7%	0.7
15	OC[C@@H]1CN(Cc2cccs2)C[C@H](n2cnc3c(NCc4ccc(F)cc4)ncnc32)O1	·	·	·	-0.6	2.4%	0.7%	·
16	Cc1nc(N)[nH]c(=O)c1CCC(=O)OCC(C)C	9.3	0.3	1.0%	-0.5	0.7%	5.0%[38.3 µM]	-3.5
17	COc1ccccc1-[n+]1c(C)cc(/C=C2\Sc3ccccc3N2C)cc1C	-11.9	?	-27.8%	65.0*	-0.7%	4.4%	?
18	O=C(NCC(=O)N1CCN(c2ccccc2)CC1)c1cccs1	8.2	-3.8	24.1%	-0.4	0.7%	-0.1%	5.6
19	CCCCOc1ccc(CNC(=O)c2cccc(NC(=O)N3CCSc4ncccc43)c2)cc1	8.7	·	·	2.7	-27.8%	-1.8%	·
20	COCCn1c(=NC(=O)CSCC(=O)Nc2cc(C)on2)sc2cc(C(=O)OC)ccc21	-2.7	0.2	19.5%	5.4	-21.5%	-0.3%	-2.3
21	COc1cc(NC(=O)c2ccc(OC)c([N+](=O)[O-])c2)ccc1NC(=O)c1ccco1	-1.0	-3.6	-1.5%	-0.9	·	9.2%	8.1
22	COc1ccccc1N1CCN(C2CCCN(C(=O)Cn3cccn3)C2)CC1 (configuration not stated)	2.8	·	7.8%	0.1	0.8%	2.4%	-3.6
23	Nn1c(-c2ccc(O)cc2)nnc1-c1ccc(O)cc1	·	-4.2	15.0%	·	-2.4%	0.9%	-4.1
24	O=C(NCC1CCN(S(=O)(=O)c2ccccc2)CC1)Nc1ccccc1	-4.4	-3.4	8.8%	-0.4	·	3.3%	-3.9
25	COc1ccc(C(=O)NC(CC(C)C)C(=O)O)cc1 (configuration not stated)	0.0	·	·	-1.1	2.1%	0.3%	2.4
26	COc1ccc([C@]23Cc4cc(OC)c(OC)cc4C(O2)c2c(cc(C)oc2=O)O3)cc1	·	12.0[11.7 µM]	-17.5%	·	·	·	i
27	CC(=O)c1cccc(NC(=O)c2cc3ccccn3n2)c1	2.9	-1.7	14.2%	0.1	-2.0%	0.8%	-33.5
28	O=C(Nc1ccc(Cl)cc1)[C@@H]1[C@@H]2C(=O)N(c3cccc(F)c3)C(=O)[C@@H]2[C@H]2C=CC=NN21	11.0	-0.7	-3.2%	-0.2	-2.8%	0.5%	-15.2
29	O=C(CN1CCNC(=O)C1)NCCc1ccc(Cl)cc1Cl	-3.8	-5.9	21.8%	-0.5	·	3.2%	-1.3
30	O=C(Nc1ccc2c(c1)OCCO2)c1cnn(-c2ccccc2)n1	13.1	·	·	4.5	-4.0%	1.4%	13.0

Continuation:
nr	SMILES	TRPML1 blocker	Menin MLL FP FL	Sfp PPTase inh	TRPML1 ag	ClpP mod	PINK1 modulator	TRPV1 PAM
31	CCCN1Cc2cccc(C(N)=O)c2C1=O	-1.0	0.0	10.9%	-0.3	-0.3%	1.6%	-7.4
32	O=C(NCc1ccccn1)c1cn(CCc2ccccc2)nn1	33.5	1.4	-12.2%	1.0	2.2%	-2.3%	-0.7
33	COc1ccccc1C(=O)NNC(=O)c1cccc(Cl)c1	8.8	3.6	5.0%	-0.2	1.0%	0.1%	-5.0
34	CSc1nc2sc3c(c2c(=O)[nH]1)CCc1ccccc1-3	-11.5	0.0	2.5%	0.3	·	-0.2%	1.7
35	O=C(/C=C/c1cn(CC(O)CN2CCCCC2)c2ccccc12)c1ccccc1 (configuration not stated)	25.7	14.8	-18.0%	2.7	0.0%	-3.8%	-14.6
36	S=c1[nH]nc(-c2ccco2)n1/N=C/c1ccc(Cl)cc1Cl	-3.0	-1.4	-5.7%	2.7	-2.1%	-1.4%	3.9
37	COc1ccc(C(=O)N/N=C(\C)CC(=O)Nc2ccccn2)cc1OC	15.1	1.7	?	-0.5	·	1.2%	4.9
38	CCCC(=O)C1=C(O)C(C(=O)OC)C(C)(C)CC1=Nc1ccncc1 (configuration not stated)	-4.8	1.8	4.5%	0.2	0.5%	-1.6%	14.7
39	CC(C(=O)Nc1ccccc1C(=O)N1CCOCC1)N(c1ccccc1)S(C)(=O)=O (configuration not stated)	22.3	2.8	20.6%	6.6	0.6%	-1.6%	26.0
40	CC1CN(C(=O)c2cc3cc(F)ccc3[nH]2)CC(C)O1 (configuration not stated)	·	7.0	17.5%	·	-6.9%	2.5%	-18.1
41	O=C(NCc1ccc(C(F)(F)F)cc1)C1CC(c2c(Cl)cccc2Cl)=NO1 (configuration not stated)	1.5	-0.1	6.4%	1.0	0.6%	0.2%	6.6
42	Cc1nc2ccc(NC(=O)c3ccc(Cl)c([N+](=O)[O-])c3)cc2s1	-11.6	-0.1	0.6%	-0.2	2.4%	3.3%	29.3
43	COc1ccc(CN2CCCC(C(=O)Nc3cccc(-n4cccn4)c3)C2)cc1 (configuration not stated)	44.9	·	8.1%	0.2	-0.1%	-0.4%	-2.6
44	COc1ccc(S(=O)(=O)NNC(=O)c2csc(-n3nc(C)cc3C(F)(F)F)n2)cc1	17.9	0.3	12.3%	-0.7	0.0%	-2.1%	-19.4
45	Cc1cccc(N2CCN(C(=O)N3CCOCC3)CC2)c1C	-0.7	-1.2	24.8%	-0.4	·	3.0%	-6.8
46	Cn1nnc(NC(=O)c2ccc(C(C)(C)C)cc2)n1	1.7	2.9	27.2%	-1.0	3.1%	-0.5%	-18.8
47	CN(C)C(=O)c1cc(C(=O)c2ccccc2C(F)(F)F)c[nH]1	-0.2	1.0	15.5%	-0.6	·	1.2%	-2.7
48	CCCCOc1ccc(CSc2n[nH]c(C)n2)cc1	6.7	-4.7	1.1%	0.9	0.4%	6.1%[38.3 µM]	20.2
49	CC(C)C(=O)OCc1cn(-c2ccc(Cl)c(Cl)c2)nn1	-11.0	1.4	-1.8%	-0.2	·	0.0%	-26.3
50	C[C@H]1CN[C@H](CCO)/C1=C\c1ccccc1	8.4	·	·	-0.4	2.5%	-0.5%	·
51	COc1cc(C(CC(=O)N2CCCC2)c2c(OC)cc(OC)c3ccc(=O)oc23)cc(OC)c1OC (configuration not stated)	-11.1&8.8	?	8.1%&-3.6%	1.0&0.3	-11.6%	1.5%	?
52	CC(C)(C)NC(=O)C1Cc2ccccc2CN1C(=O)Nc1ccccc1Cl (configuration not stated)	1.1	7.4	22.1%	-0.5	-0.3%	1.1%	-22.5
53	CCOc1ccc2cc(C3CC(c4ccco4)=NN3S(=O)(=O)c3ccccc3)c(Cl)nc2c1 (configuration not stated)	-10.8	7.2	-6.1%	1.5	-21.0%	8.4%	2.3
54	COc1ccccc1CCNC(=O)CCc1c(C)c2cc3c(C)coc3c(C)c2oc1=O	-8.4	·	·	3.8	?	2.1%	·
55	CC(C)c1ccc(S(=O)(=O)NCc2ccc3c(c2)OCO3)cc1	12.0	-1.0	3.0%	1.7	-3.2%	1.6%	18.9
